# RVFV N-RNA inh: inhibitors of Rift Valley Fever Virus nucleocapsid-RNA interaction | hit rate 0.1% among 20,000 | RVFV N-RNA binding, fluorescence polarization; hits give low values | AID 651828 | % bound, % (test concentration not listed);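 active = between 0 and 58% in either replicate with normal brightness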;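 note: 100 nL library stock added to about 12 µL; 100% = protein and probe without compound and 0% = probe alone; numbers are from one replicate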
# Target sequence (P21700 whole entry, looked up): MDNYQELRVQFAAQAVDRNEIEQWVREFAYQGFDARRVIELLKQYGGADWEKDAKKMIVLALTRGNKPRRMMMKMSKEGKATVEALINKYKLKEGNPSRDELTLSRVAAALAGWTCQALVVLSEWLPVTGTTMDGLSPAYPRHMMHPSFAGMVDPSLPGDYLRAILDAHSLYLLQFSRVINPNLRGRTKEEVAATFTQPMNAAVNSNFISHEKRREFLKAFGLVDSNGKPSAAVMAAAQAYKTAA
# * hit, by the source's call; & = joins results of further samples. This is a subset; count on the stated rates, not on these rows.
no.	canonical_smiles	RVFV N-RNA inh
1	CC(C)NNC(=O)c1ccncc1	97&108
2	CNS(=O)(=O)CCc1ccc2[nH]cc(C3CCN(C)CC3)c2c1	101
3	O=C(CN1C(=O)c2ccccc2C1=O)Nc1nnc(-c2ccc3c(c2)OCCO3)o1	94
4	COC(=O)c1ccccc1O	92
5	COc1cc2ncn(-c3cc(OCc4ccccc4S(C)(=O)=O)c(C#N)s3)c2cc1OC	97
6	CCCOc1ccc(C(=O)OCCN(CC)CC)cc1N	98
7	COc1ccc(-c2oc3c(CC=C(C)C)c(O[C@@H]4O[C@H](CO)[C@@H](O)[C@H](O)[C@H]4O)cc(O)c3c(=O)c2O[C@@H]2O[C@@H](C)[C@H](O)[C@@H](O)[C@H]2O)cc1	96
8	CN[C@@H]1[C@H](O)[C@H](NC)[C@H]2O[C@@]3(O)C(=O)C[C@@H](C)O[C@H]3O[C@@H]2[C@H]1O	101&96
9	CCN(CC)CC1CCCCN1CC(=O)N1c2ccccc2C(=O)Nc2cccnc21 (configuration not stated)	95
10	N=c1nc(N2CCCCC2)cc(N)n1O	97&99&102
11	Cc1scc2c1N(C(=O)CN1CCN(C)CC1)c1ccccc1NC2=O	91&100
12	CCCOc1ccc2nc(NC(=O)OC)[nH]c2c1	95
13	CN(C)CC/C=C1/c2ccccc2COc2ccc(CC(=O)O)cc21	98&99
14	CC(C)c1nn(-c2c(Cl)cccc2Cl)c2nc(Cc3ccc(OCCO)cc3)[nH]c(=O)c12	111
15	Cc1cc(CC(C)CC(C)(C)C)n(O)c(=O)c1 (configuration not stated) (tested in a mixture with another compound)	97&97

# Grouped by structure, the compounds so far with a thiophene ring, fused or not (2)
no.	canonical_smiles	RVFV N-RNA inh
5	COc1cc2ncn(-c3cc(OCc4ccccc4S(C)(=O)=O)c(C#N)s3)c2cc1OC	97
11	Cc1scc2c1N(C(=O)CN1CCN(C)CC1)c1ccccc1NC2=O	91&100

# (more compounds)
no.	canonical_smiles	RVFV N-RNA inh
16	O=C(O)Cc1sc(-c2ccccc2)nc1-c1ccc(Cl)cc1	94
17	CC(=O)N[C@@H](Cc1ccccc1)C(=O)O	101
18	CCC1(O)CC2CN(CCc3c([nH]c4ccccc34)[C@@](C(=O)OC)(c3cc4c(cc3OC)N(C)C3[C@]45CCN4CC=C[C@@](CC)([C@@H](OC(C)=O)[C@]3(O)C(=O)OC)[C@H]45)C2)C1 (some centres not stated)	91
19	C=CCN1C[C@H](C(=O)N(CCCN(C)C)C(=O)NCC)C[C@@H]2c3cccc4[nH]cc(c34)C[C@H]21	106
20	CC(C)(C)NCC(O)COc1cccc2c1C[C@H](O)[C@H](O)C2 (some centres not stated)	101
21	COC(=O)C1=C(C)NC(C)=C(C(=O)OCCN2CCN(C(c3ccccc3)c3ccccc3)CC2)C1c1cccc([N+](=O)[O-])c1 (configuration not stated)	96&95
22	COc1ccccc1CN[C@@H]1CCCN[C@@H]1c1ccccc1	92
23	CCn1cc(C(=O)O)c(=O)c2cc(F)c(N3CCNC(C)C3)c(F)c21 (configuration not stated)	97&96
24	CC1(C)O[C@@H]2C[C@H]3[C@@H]4C[C@H](F)C5=CC(=O)C=C[C@]5(C)[C@@]4(F)[C@@H](O)C[C@]3(C)[C@]2(C(=O)CO)O1	95&95
25	Cn1ccc2cc3c(cc21)CCN3C(=O)Nc1cccnc1	90
26	COC(=O)N/N=C/c1c[n+]([O-])c2ccccc2[n+]1[O-]	91
27	Cc1cc(=O)oc2cc(O)ccc12	101
28	Nc1ncnc2c1c(-c1ccc(Oc3ccccc3)cc1)cn2C1CCCC1	103&100
29	COc1cc(N)c(Cl)cc1C(=O)N[C@@H]1CCN(CCCOc2ccc(F)cc2)C[C@@H]1OC	97
30	CN(C)CCCSc1ccccc1NC(=O)/C=C/c1ccccc1	93&96

# Results in sequence from the entries so far:
# Entries 17 to 24 in RVFV N-RNA inh read 101, 91, 106, 101, 96&95, 92, 97&96, 95&95

# Four compounds drawn at random from those above, as already listed:
no.	canonical_smiles	RVFV N-RNA inh
18	CCC1(O)CC2CN(CCc3c([nH]c4ccccc34)[C@@](C(=O)OC)(c3cc4c(cc3OC)N(C)C3[C@]45CCN4CC=C[C@@](CC)([C@@H](OC(C)=O)[C@]3(O)C(=O)OC)[C@H]45)C2)C1 (some centres not stated)	91
28	Nc1ncnc2c1c(-c1ccc(Oc3ccccc3)cc1)cn2C1CCCC1	103&100
20	CC(C)(C)NCC(O)COc1cccc2c1C[C@H](O)[C@H](O)C2 (some centres not stated)	101
21	COC(=O)C1=C(C)NC(C)=C(C(=O)OCCN2CCN(C(c3ccccc3)c3ccccc3)CC2)C1c1cccc([N+](=O)[O-])c1 (configuration not stated)	96&95

# 3 structures from above, sorted by molar mass, low to high.
no.	canonical_smiles	RVFV N-RNA inh
26	COC(=O)N/N=C/c1c[n+]([O-])c2ccccc2[n+]1[O-]	91
30	CN(C)CCCSc1ccccc1NC(=O)/C=C/c1ccccc1	93&96
24	CC1(C)O[C@@H]2C[C@H]3[C@@H]4C[C@H](F)C5=CC(=O)C=C[C@]5(C)[C@@]4(F)[C@@H](O)C[C@]3(C)[C@]2(C(=O)CO)O1	95&95

# Compound activity deposited in PubChem by ICCB-Longwood Screening Facility, Harvard Medical School.
